Screening data (PubChem BioAssay)
ALR H2O2 inh – blocks human ALR sulfhydryl oxidase activity. P55789. purified ALR, DTT oxidation, H2O2 HRP-luminol luminescence. inhibition, % (concentration not given with the values). 290,000 compounds, 3.8% hits;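 active = mean and each replicate at 75% or more; inconclusive = only one of the two met; inactive = neither met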;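 note: stock transfer was 7.5 nL into about 7.5 µL; 0% = neutral wells and 100% = wells with inactivated enzyme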
Ecoli growth – E. coli growth inhibition | 330,000 compounds, 0.21% hits | OD600 absorbance (test concentration not listed) | Escherichia coli growth, OD600, 23 h; stronger effect = lower value;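 active = OD600 absorbance below the run mean of sample wells minus 3.6 SD, in any replicate, cut at about 0.56 in these data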;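 note: stock transfer was 300 nL into about 60 µL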
AF4-AF9 inh – MLL-AF4/AF9 protein interaction inhibition; P42568; AlphaScreen, biotin-AF4 peptide binding to FLAG-AF9; inhibition, % at 10 µM; 350,000 compounds, 0.47% hits; AID 651704;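 active = every replicate reaching a set inhibition limit, whatever the replicate mean, cut at about 25% in these data; inconclusive = mean inhibition reaches that limit but some replicates miss it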;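 note: 0% = plate neutral control median and 100% = total signal loss; the record names both 10 and 1 µM as test concentration; the first replicate is given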
Target sequence (P42568 whole entry, looked up): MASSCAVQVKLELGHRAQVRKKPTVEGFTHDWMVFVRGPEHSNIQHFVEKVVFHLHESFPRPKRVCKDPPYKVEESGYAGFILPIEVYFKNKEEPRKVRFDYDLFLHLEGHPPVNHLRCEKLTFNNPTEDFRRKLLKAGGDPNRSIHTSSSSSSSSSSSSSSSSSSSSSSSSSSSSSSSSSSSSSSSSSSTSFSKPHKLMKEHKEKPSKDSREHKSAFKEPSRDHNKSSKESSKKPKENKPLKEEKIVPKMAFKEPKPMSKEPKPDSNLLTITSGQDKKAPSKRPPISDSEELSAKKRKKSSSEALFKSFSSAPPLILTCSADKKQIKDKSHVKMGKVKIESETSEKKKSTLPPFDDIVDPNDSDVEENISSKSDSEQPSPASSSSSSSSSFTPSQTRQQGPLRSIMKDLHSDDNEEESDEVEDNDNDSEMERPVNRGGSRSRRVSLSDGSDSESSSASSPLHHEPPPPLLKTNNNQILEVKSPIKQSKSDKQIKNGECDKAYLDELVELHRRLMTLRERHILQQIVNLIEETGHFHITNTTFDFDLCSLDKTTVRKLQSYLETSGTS
HNF4A DNA FP – change in binding of human HNF4 alpha to DNA; P41235; HNF4a-FITC DNA binding, fluorescence polarization, 1 h; activity change, % at 10 µM; 360,000 compounds, 0.3% hits; in the data active = activity change above about 30%, passing the limit was not always enough;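 note: controls were the assay level and a saturating level of protein; the project sought stronger binding though the title names inhibitors; some compounds called inactive have numbers as strong as hits; positive values seem to mean higher polarization but the record does not say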
Target sequence (P41235 whole entry, looked up): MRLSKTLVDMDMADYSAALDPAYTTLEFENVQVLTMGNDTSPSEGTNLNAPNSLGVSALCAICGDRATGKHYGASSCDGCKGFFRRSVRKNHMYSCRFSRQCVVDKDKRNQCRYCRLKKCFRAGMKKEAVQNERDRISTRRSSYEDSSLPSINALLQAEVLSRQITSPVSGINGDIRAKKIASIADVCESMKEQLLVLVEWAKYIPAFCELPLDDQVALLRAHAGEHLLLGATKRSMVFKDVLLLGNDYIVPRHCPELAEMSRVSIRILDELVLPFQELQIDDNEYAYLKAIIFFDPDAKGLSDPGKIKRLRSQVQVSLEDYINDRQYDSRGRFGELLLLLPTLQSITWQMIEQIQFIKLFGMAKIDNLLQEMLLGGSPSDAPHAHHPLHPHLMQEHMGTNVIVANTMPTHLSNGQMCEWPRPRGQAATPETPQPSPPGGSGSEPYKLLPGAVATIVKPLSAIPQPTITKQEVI
FGF22 binding – shifts melting point of recombinant human FGF22. Q9HCT0. recombinant FGF22 thermal shift, SYPRO orange fluorescence; percent of sucrose octasulfate shift, DMSO zero. calls only at 9.99 µM. 340,000 compounds, 1.5% hits;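 active = melting point raised past a set limit in the mean and every replicate; inconclusive = no clear call; three in four hits are not shown here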
Vif A3G – inhibitors of Vif binding to APOBEC3G peptide, primary screen, biochemical, TR-FRET, GST-Vif 1-94, biotin-A3G peptide, dose response retest (AID 1117319); inhibition, %; hits with a dose series show IC50 in µM; TR-FRET GST-Vif / biotin-A3G peptide binding; higher % means a stronger effect; test concentration not given here; strong numbers were not always called active; 260,000 compounds, 0.57% hits;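 active = above the screen mean plus three standard deviations and confirmed in dose response; inconclusive = results disagree or hit not tested in dose response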;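 note: Vif residues 1-94 fused to GST binding biotinylated APOBEC3G peptide 110-148; 0% = full assay without inhibitor and 100% = GST in place of GST-Vif; retest series ran down from 100 µM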
Ecoli rRNA inh – inhibits bacterial ribosomal RNA function over humanized ribosomes; 350,000 compounds, 1.6% hits; AID 720706; GFP signal change (wild-type ribosome), % (concentration not given with the values); E. coli WT GFP vs humanized-ribosome RFP mutants, fluorescence, 24 h; stronger effect = lower value; DMSO median 0, no signal -100;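 active = significant combined selectivity score with lowered wild-type GFP, culture density cut under 30%, mutant RFP and density less affected; inactive = any of these conditions unmet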; note: one replicate is shown; some compounds called inactive have numbers as strong as hits
Ecoli rRNA inh OD600 – also measured in Ecoli rRNA inh; calls as there; OD600 change, %; measured here: OD600 growth;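 optical density of the mix in the first replicate; 0 = DMSO median and -100 = no signal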
Ecoli rRNA inh RFP – also measured in Ecoli rRNA inh; calls as there; RFP signal change, %; measured here: RFP humanized mutant strains;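 first replicate; 0 = DMSO median and -100 = no signal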
* hit, by the source's call; i = inactive; ? = inconclusive; / = no result given; + = active, no number; & = joins results of further samples. An excerpt; count on the stated rates, not on these rows.

SMILES	ALR H2O2 inh	Ecoli growth	AF4-AF9 inh	HNF4A DNA FP	FGF22 binding	Vif A3G	Ecoli rRNA inh	Ecoli rRNA inh OD600	Ecoli rRNA inh RFP
CCOC(=O)CSc1nnc(CNC(=O)c2ccc(OC)cc2)n1Cc1ccccc1	4	0.69	/	1.7	/	-2%	/	/	/
Oc1c(Cl)cccc1C=Nc1cc(C(F)(F)F)ccc1N1CCCC1	48	0.72	/	-3.6	/	-1%	/	/	/
CC(=O)NCCNC(=O)c1oc2ccccc2c1CSc1ncn[nH]1	-1	0.71	-0.3	2.8	i	3%	6	0	-0.5
CCOC(=O)COc1cc(=O)n(CC)c2ccccc12	4	0.72	/	-0.9	/	?	/	/	/
CCCOc1ccc(N2C(=O)CC(SC(=NCC)NCC)C2=O)cc1 (centres undefined)	-4	0.69	/	0.5	/	/	/	/	/
CN1CCN(c2ccc(NC(=O)COc3ccc4ccccc4c3)cc2)CC1	-13	0.68	4.9	-1.3	i	/	1	6	-2.0
C=COCCn1c(=N)n(CCC)c2ccccc21	28	0.77	/	-0.7	/	17%	/	/	/
CN1CCN(Cc2nc3c(c(=O)n(C)c(=O)n3C)n2CCCc2ccccc2)CC1	/	0.72	/	3.2	/	28%	/	/	/
Cc1cc(C)c2[nH]c(=O)c(CN(CC3CCCO3)S(=O)(=O)c3ccc4c(c3)OCCO4)cc2c1 (centres undefined)	-24	0.71	/	-3.2	/	-3%&0%	/	/	/
COc1ccc(N2CCN(C(=O)c3oc4ccccc4c3NC(=O)Cc3cccc(OC)c3)CC2)cc1	17	0.72	12	0.2	i	/	-1	4	-4.5
CCN(C(=O)COc1ncnc2scc(-c3ccc(F)cc3)c12)C1CCS(=O)(=O)C1 (centres undefined)	-8	0.7	/	-1.1	/	17%	/	/	/
Cc1ccc2cc(CCNC(=O)C3CCCC3)c(=O)[nH]c2c1	-17	0.73	-8.6	4.0	i	4%	8	8	0.2
CCc1nonc1NC(=O)c1oc2ccc(Br)cc2c1C	11	0.69	-3.7	0.0	i	-3%	4	3	-5.0
Cc1ccc(OCCn2cc(/C=C/C(=O)O)c3ccccc32)cc1	/	0.67	-2.4	-2.8	i	2%	12	-22	-1.8
CCCCOc1ccc(Cc2cnc(N)nc2N)cc1	0	0.34*	2.8	6.9	i	-12%	/	/	/
CCC(=O)NC[C@@H]1[C@H](c2ccccc2)[C@H](CO)N1C(=O)C1CC1	/	/	-4.1	/	i	/	1	-13	-1.0
Cc1cc(=O)[nH]c(SC/C=C/c2ccccc2)n1	8	0.64	/	2.3	/	1%	/	/	/
Cc1ccc(S(=O)(=O)Nc2ccc3c(c2)C(=O)N([C@@H](C)CO)C[C@H](C)[C@@H](CN(C)Cc2ccc4c(c2)OCO4)OCCCC[C@@H](C)O3)cc1	/	/	4.9	/	i	/	0	-33	13
COc1ccccc1NC(=S)NCc1cccs1	-2	0.71	/	-1.2	/	?	/	/	/
CCOC(=O)c1cnc2c(OC)cccc2c1Nc1ccc2c(c1)OCCO2	0	0.71	/	3.0	/	4%	/	/	/
CC1CCC(NC(=O)CCS(=O)(=O)c2ccc3c(c2)oc(=O)n3C)CC1 (centres undefined)	21	0.69	-3.5	-0.4	i	/	6	4	-0.4
CCc1cccc(NC(=O)CC2SC(N3CCCC3)=NC2=O)c1 (centres undefined)	-3	0.68	-1.0	2.9	i	/	/	/	/
CN(C)CCNC(=O)Cn1ccc2cc(S(=O)(=O)N3CCCCC3)ccc21	-12	0.66	-2.7	-1.9	i	2%	8	11	1.4
Cc1ccc(-c2nc(SCC(=O)c3c(N)n(C)c(=O)n(C)c3=O)n[nH]2)cc1	24	0.67	-3.1	6.2	i	-2%	28	19	6.1
O=C(Nc1cccnc1)c1cc([N+](=O)[O-])ccc1Cl	16	0.68	2.1	-1.2	i	9%	-5	-6	-2.4
C#CCNC(=O)C1=C[C@@H](c2ccc(C(F)(F)F)cc2)[C@H](CCCO)[C@@H](OCC)O1	/	/	-5.0	1.3	i	?	5	6	4.7
C[C@H](NC(=O)C[C@H]1C[C@@H]2c3cc(NC(=O)Cc4ccncc4)ccc3O[C@@H]2[C@@H](CO)O1)c1ccccc1	/	/	0.0	/	i	/	3	6	0.2
COCCN(C(=O)CCC(=O)Nc1ccccn1)C(C(=O)NCCC(C)C)c1ccc(C)cc1 (centres undefined)	-6	0.7	1.6	-4.5	i	/	2	6	-2.8
COc1cc([C@H](Cc2ccccc2)NC(C)=O)oc(=O)c1	-12	0.68	-1.9	-22	i	19%	/	/	/
CC(=O)c1ccc(S(=O)(=O)NC2CCCCCCC2)cc1	-9	0.69	-2.3	-3.6	i	8%	-1	-7	0.2
C[C@@H]1CN([C@@H](C)CO)C(=O)c2cccc(NC(=O)Nc3ccc(C(F)(F)F)cc3)c2O[C@H]1CN(C)S(C)(=O)=O	/	/	-1.4	/	i	/	-2	-13	-1.1
COc1cc(C(=O)NC2CCN(CC(=O)NC3CCCCC3)CC2)cc(OC)c1OC	-6	0.7	-1.8	2.3	i	/	8	5	-0.7
Cc1noc(NS(=O)(=O)c2ccc(NC(=O)CSc3nc4ccccc4[nH]3)cc2)c1C	75	0.6	-82	3.0	i	4%	6	1	-0.7
CC(CO)Nc1nc(SCc2ccccc2)nc2sc3c(c12)CCC3 (centres undefined)	-8	0.72	/	0.8	/	-2%	/	/	/
Cc1ccc(S(=O)(=O)Nc2ccc3c(c2)C(=O)N([C@H](C)CO)C[C@H](C)[C@H](CN(C)S(=O)(=O)c2ccc(C)cc2)O3)cc1	/	/	-1.5	/	i	/	0	-6	2.3
O=S(=O)(NCc1cccnc1)c1ccc(Cl)c2ccccc12	-4	0.66	-0.6	-3.0	i	/	-6	-16	1.5
COc1ccc(CCNC(=O)CS(=O)Cc2nc(-c3cccs3)oc2C)cc1OC (centres undefined)	99*	0.73	/	2.1	/	23%&2%	-1	8	0.4
CC(C)CC(NC(=O)c1ccc(Cl)cc1)C(=O)OCc1cc([N+](=O)[O-])cc2c1OCOC2 (centres undefined)	-20	0.71	/	-2.0	/	/	/	/	/
C[C@@H]1CCCCO[C@H](CN(C)CC2CC2)[C@H](C)CN([C@@H](C)CO)C(=O)c2cc(NS(=O)(=O)c3ccc(Cl)cc3)ccc2O1	/	/	10	/	i	/	5	2	1.6
COc1ccc(-c2coc3c(C(=O)NCc4cccs4)cccc23)c(C)c1	/	/	-3.0	-3.6	i	/	5	-6	34

Arranged by molar mass (falling): 3 of the compounds above
SMILES	ALR H2O2 inh	Ecoli growth	AF4-AF9 inh	HNF4A DNA FP	FGF22 binding	Vif A3G	Ecoli rRNA inh	Ecoli rRNA inh OD600	Ecoli rRNA inh RFP
Cc1ccc(S(=O)(=O)Nc2ccc3c(c2)C(=O)N([C@H](C)CO)C[C@H](C)[C@H](CN(C)S(=O)(=O)c2ccc(C)cc2)O3)cc1	/	/	-1.5	/	i	/	0	-6	2.3
Cc1noc(NS(=O)(=O)c2ccc(NC(=O)CSc3nc4ccccc4[nH]3)cc2)c1C	75	0.6	-82	3.0	i	4%	6	1	-0.7
CC(CO)Nc1nc(SCc2ccccc2)nc2sc3c(c12)CCC3 (centres undefined)	-8	0.72	/	0.8	/	-2%	/	/	/

The list goes on:
SMILES	ALR H2O2 inh	Ecoli growth	AF4-AF9 inh	HNF4A DNA FP	FGF22 binding	Vif A3G	Ecoli rRNA inh	Ecoli rRNA inh OD600	Ecoli rRNA inh RFP
C[C@@H]1CN([C@@H](C)CO)C(=O)c2cccc(NC(=O)Nc3ccc4c(c3)OCO4)c2O[C@@H]1CN(C)S(=O)(=O)c1ccc(F)cc1	/	/	3.8	/	i	/	0	-4	-0.2
CC(=O)N(C)c1ccc(OCC(O)COc2ccc(N(C)C(C)=O)cc2)cc1	-3	0.69	/	-0.5	/	2%	/	/	/
COc1ccc(C2=NCCn3nc4cc(C(F)(F)F)ccc4c32)cc1	-5	/	3.7	0.0	i	/	3	7	-6.1
O=C(Cn1nc(C(F)(F)F)c2c1CCCC2)NC1CCCC1	-12	0.68	/	-2.5	/	-7%	/	/	/
COC(=O)c1ccc(N2CCS(=O)(=O)CC2)cc1	-7	0.68	-2.0	1.3	i	-4%	24	11	-1.1
CCOc1ccc(NC(=O)c2ccc(NC(=S)NC3CC3)cc2)cc1	3	0.68	2.3	-0.6	+	1%	2	0	-1.5
CCn1cnnc1SCC(=O)Nc1ccccc1C(=O)NC1CC1	-4	0.66	1.1	1.5	i	6%	5	8	1.2
CCC(=O)Nc1ccc2c(c1)OC[C@@H](C)N(S(=O)(=O)c1cn(C)cn1)C[C@@H](C)[C@H](OC)CN(C)C2=O	/	/	-1.5	/	i	/	1	-6	-1.0
O=C(COc1ccc(Cl)cc1Cl)N/N=C/c1ccccn1	-10	/	-1.4	-1.2	i	-8%	-8	-29	0.0
CCCc1[nH]nc2c1C(c1c(C)nn(-c3ccccc3)c1Cl)C(C#N)=C(N)O2 (centres undefined)	7	0.64	/	2.3	/	25%	/	/	/
C#CCOC(=O)C[N+](C)(C)CC=C	-8	0.7	-8.9	4.3	i	/	3	8	-2.2
Cc1ccc(S(=O)(=O)Nc2nnc(CC(C)(C)C)s2)cc1	-4	0.67	-0.9	-3.7	i	/	6	3	2.1
Cc1cccc(C(=O)OCC(=O)N2CC(C)OC(C)C2)c1C (centres undefined)	/	0.67	2.4	-2.2	i	/	7	10	-0.8
Cc1cccc(C(=O)NCC(c2cccs2)N2CCOCC2)c1 (centres undefined)	/	0.67	-19	-1.3	i	4%	2	8	-1.8
Cc1ccc(S(=O)(=O)N(C)C[C@@H]2OCc3cnnn3CCCC(=O)N([C@H](C)CO)C[C@H]2C)cc1	/	/	-3.8&0.2&0.1	-5.2	i	/	7&1	13&2	0.5&-1.1
Cc1ccccc1CSc1nnc(-c2cccnc2)n1N	6	0.76	/	1.6	/	18%	/	/	/
Cn1nnnc1SCC(=O)NNC(=O)c1ccc(Br)cc1	-6	0.72	-0.6	-0.7	/	-7%	10	11	-2.5
CNC(=S)NNC(=O)c1cccn(Cc2ccc(Cl)cc2Cl)c1=O	22	0.66	/	/	/	18%	/	/	/
COCCC(=O)N1CCC(Oc2ccc(C(=O)NC3CCOC(C)(C)C3)cc2)CC1 (centres undefined)	1	0.68	-13	2.8	i	/	5	8	-0.8
O=C(Nc1ccc(Cl)c(Cl)c1)N(CCCN1CCOCC1)Cc1cccs1	/	0.69	-4.1	-3.3	i	-2%	-32	-72	14
CSc1ccc(-c2cc3c(c4c2ccn4C)C2CCC3C2)cc1 (centres undefined)	/	/	6.5	-0.1	i	/	-5	-8	2.0
O=C(Nc1ccc2c(c1)C(=O)NC2=O)c1cccc(Cl)c1	/	0.74	0.3	4.8	i	/	9	15	0.6
COc1ccc(NC(=O)/C(=C\c2ccc(F)cc2)NC(=O)c2ccco2)cc1	4	0.69	-9.6	-1.2	i	/	3	13	0.1
CC(Cc1ccccc1)NC(=O)CCCN1C(=O)c2ccccc2C1=O (centres undefined)	-6	0.66	-0.2	1.8	i	-2%	0	2	0.4
Cc1ccc(S(=O)(=O)N2C[C@H]3[C@H]4C(=O)N(c5ccccc5)C(=O)[C@H]4CC(=O)[C@H]3[C@@H]2c2cccc3ccccc23)cc1	/	/	-3.1	-4.5	i	/	8	14	-0.6
Cc1ccccc1N1CCN(Cc2nc(Cc3ccccc3F)no2)CC1	/	0.65	-2.4	-1.8	i	?	-16	-3	-4.7
COc1cc(-c2cc(NC(C)=O)c3ncc(-c4ccc(F)cc4)n3c2)cc(OC)c1OC	/	/	-7.7	3.0	i	/	-4	4	5.7
Cc1ccc(S(=O)(=O)NNC(=O)c2sc(=S)n(C)c2C)cc1	2	0.69	-1.7	-0.2	i	/	5	9	3.0
